Yeast UUG start – modulators of start codon recognition fidelity in yeast; S. cerevisiae UUG-firefly luciferase reporter, luminescence/redox ratio; activity score, % at 18.7 µM; actives 0.13% (n = 350,000); AID 602363;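 active = replicate mean at a twofold rise or more, about +100% in these data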;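 note: firefly luciferase made from a UUG start codon reports start codon fidelity; reporter light over untreated wells divided by growth signal over untreated wells; some hits fall short of that in this replicate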
PABP FP inh – blocks human PABP binding to poly(A) RNA; P11940; fluorescence polarization; inhibition, % at 35 µM; actives 1% (n = 290,000); AID 2014;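 active = 50% or more with normal probe brightness, or confirmed in later tests; about a fifth of its hits are not listed in these tables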;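 note: calls also rest on retests at 20 µM and on dose response follow-up; controls were probe without protein and protein plus probe with vehicle; some compounds called inactive have numbers as strong as hits; many hits fall short of the cut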
Rce1 inh – blocks yeast Ras-converting enzyme; Q03530; yeast membranes, quenched prenylated peptide cleavage fluorescence; calls only; actives 0.27% (n = 290,000); AID 2563;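 active = fall in fluorescence gain of 50% or more versus controls, with final raw signal at or below 3038400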;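 note: plate controls were neutral control wells for no effect and wells lacking membranes for full effect; tested at 10 µM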
Target sequence (Q03530 whole entry, looked up): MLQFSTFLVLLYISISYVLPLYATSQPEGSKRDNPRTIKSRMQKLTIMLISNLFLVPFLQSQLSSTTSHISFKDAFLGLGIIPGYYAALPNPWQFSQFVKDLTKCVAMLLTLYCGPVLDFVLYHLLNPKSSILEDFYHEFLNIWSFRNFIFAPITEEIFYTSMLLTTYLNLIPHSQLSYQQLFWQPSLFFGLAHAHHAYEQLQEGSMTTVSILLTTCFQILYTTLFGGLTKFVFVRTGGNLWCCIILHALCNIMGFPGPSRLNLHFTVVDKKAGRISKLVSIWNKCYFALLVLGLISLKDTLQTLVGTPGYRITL
CSC inhib – blocks cancer stem cells; cancer stem cell-like cells viability, luminescence; actives 1.1% (n = 300,000); inhibition, % at 7.5 µM;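 active = mean at 75% or more and at least half the replicates too; tested in HMLE shEcad cells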;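 note: 0% = median of negative and 100% = median of positive control wells; the first replicate is given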
Env fusion inh – blocks HIV Env-driven cell-cell fusion; actives 1.1% (n = 360,000); HeLa-JRFL Env/CEM21 cell fusion, luciferase; inhibition, % at 12.3 µM;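 active = mean replicate inhibition score of at least 50 and every replicate individually at or above 50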;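 note: 0% = plate neutral controls and 100% = maraviroc near 300 nM; one replicate is shown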
MT1-MMP act inh – blocks activation of human MT1-MMP | P50281 | HT1080 RFP-PRO-GFP cells, GFP/RFP ratio fluorescence, overnight; percent of plate control window, DMSO zero | GFP/RFP ratio change, % at 20 µM | actives 0.061% (n = 360,000) | AID 651647;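 active = GFP/RFP ratio change of at least 30% with cell ATP level not reduced by more than half and red fluorescence within 50% of control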; note: strong numbers were not always called active
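Assay system: RFP-PRO-GFP reporter HT1080 cells; read-out basis: GFP/RFP fluorescence ratio; benchmarks: DMSO wells and RFP-L50D-GFP cells; doses: 20 µM single dose, 1% DMSO; schedule: overnight cell settling, then overnight compound exposure, 37 °C, 5% CO2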
eIF4H FP inh – inhibitors of RNA binding by human eIF4H | inhibition, % at 35 µM | eIF4H fluorescence polarization binding assay | actives 0.94% (n = 290,000);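 active = 50% or more with normal probe brightness, or confirmed in later tests; about a fifth of its hits are not listed in these tables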;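 note: calls also rest on retests at 20 µM and on dose response follow-up; 0% = protein and probe with vehicle and 100% = probe without protein; strong numbers were not always called active; many hits fall short of the cut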
eIF4H FP inh retest – second read-out of eIF4H FP inh, no call of its own (marks repeat the call); inhibition, %; compound at 20 µM; confirmation average;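 mean of two retest wells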
PABP FP inh retest – recorded beside PABP FP inh, whose call it bears; inhibition, %; compound at 20 µM; confirmation repeats;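 mean of two retest wells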
MT1-MMP act inh RFP – recorded beside MT1-MMP act inh, whose call it bears; RFP signal change, %; measured here: RFP expression control read;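 0 = vehicle wells; hits needed this value within 50% of zero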
Numbers without * were called inactive; i = inactive; nt = not tested or not shown; & = joins results of further samples; [ ] = another dose, or the depositor's remark.

SMILES	Yeast UUG start	PABP FP inh	Rce1 inh	CSC inhib	Env fusion inh	MT1-MMP act inh	MT1-MMP act inh RFP	eIF4H FP inh	others
O=C(COc1ccc(N2CC(C(=O)O)CC2=O)cc1)Nc1cccc(C(F)(F)F)c1 (stereo unspecified)	-2	71	i	-9	-2	0	4	-16	eIF4H FP inh retest=12;PABP FP inh retest=3
COc1c(F)c(F)c(C(=O)O)c(Nc2cccc(C)c2)c1F	nt	12	i	nt	-48	-4	3	-9
C=CCNC(=O)c1onc(CSc2ccccn2)c1C(=O)NCC=C	-13	-6	i	-2	9	2	-1	-6
CCC(=O)NC(c1ccc(Cl)cc1Cl)c1ccc2cccnc2c1O (stereo unspecified)	-30	1	i	104*	-3	1	-7	12
COc1ccc(CCN2C(=O)CC(N3CCN(C/C=C/c4ccccc4)CC3)C2=O)cc1OC (stereo unspecified)	nt	-4	i	-2	9	6	-9	-15
CC1CCC(NC(=O)CCNC(=O)c2ccc(Br)cc2)CC1 (stereo unspecified)	-2	nt	i	-15	nt	1	0	nt
CC1(C)CC(=O)c2cnc3c(C#N)cnn3c2C1	nt	5	i	-20	1	-1	5	4
Cn1cc(CNC(=O)COc2ccc(Cl)cc2Cl)cn1	-17	-7	i	-10	-22	0	-1	-2
Cc1sc(NC(=S)NC(=O)c2cccs2)nc1-c1ccc(C(C)C)cc1	-14	-4	i	-2	-143	10	-2	-2
CCOC(=O)CSc1nc2ccccc2c(=O)n1CCC(=O)NCCc1ccc(OC)c(OC)c1	-12	6	i	-15	22	-4	-2	-3
COc1ccc(/C=C/C(=O)Nc2sc3c(c2C(=O)NCc2cccnc2)CCCC3)cc1	-12	-8	i	0	9	0	-2	-4
Cc1ccc2sc(NNC(=O)c3ccc4c(c3)OCCO4)nc2c1C	-13	-7	i	13	-16	0	2	0
O=C(NCC1CCCCC1)c1ccccc1[N+](=O)[O-]	-18	5	i	-28	-20	3	3	-5
Cc1cc(NC(=O)CN2C(=O)NC(C)(c3ccc(OC(F)F)cc3)C2=O)no1 (stereo unspecified)	-1	3	i	-5	nt	7	8	0
CCC(c1nnnn1C1CCCC1)N(Cc1cccs1)Cc1cc2cc(C)ccc2[nH]c1=O (stereo unspecified)	-22	4	i	-5	nt	-1	0	-2
O=C(NC(=S)N1CCN(Cc2ccc3c(c2)OCO3)CC1)c1ccc(Cl)cc1	nt	-2	i	35	-9	3	1	12
Cn1nc(-c2ccc(OCC(=O)Nc3ccccc3)cc2)c2ccccc2c1=O	nt	0	i	-6	27	4	-5	-3
Cn1c(C2CCCCC2)nc2cc(N)ccc21	-17	-3	i	-8	2	-2	3	13
O=C(O)C(c1ccccc1)N1C(=O)/C(=C\c2ccc(O)c(O)c2)SC1=S (stereo unspecified)	nt	26	i	-6	15	6	46	9
CC(C)(C)C(=O)NCCN1C(=O)S/C(=C\c2ccc([N+](=O)[O-])cc2)C1=O	nt	7	i	-10	12	2	-4	-2
COCc1c(C(=O)N/N=C\c2ccccn2)nnn1-c1nonc1N	-9	2	i	-10	1	0	2	1
CCC(C)Sc1cc(-c2nc3cc(C)ccn3c2NC2CCCCC2)ccc1OC (stereo unspecified)	-20	nt	nt	nt	7	-82&-7	-23&-26	nt
CCOc1cc(/C=N/Nc2nc(N3CCCC3)nc(N3CCCC3)n2)ccc1O	-2	16	i	10	-98	13	9	5
CNC(=O)C1(C)Cc2c(-c3ccc(NC(C)=O)cc3)ccnc2O1 (stereo unspecified)	-9	nt	nt	nt	7	0	0	nt
O=C(Nc1c(C(=O)N2CCOCC2)oc2ccccc12)c1ccccc1Cl	8	14	i	-5	15	-4	5	-7
Cc1ccc(-c2n[nH]c(=S)c3ccccc23)cc1S(=O)(=O)NCC1CCCO1 (stereo unspecified)	-18	8	i	5	24	4	-5	-9
Cc1ccccc1N=Nc1c(O)n(C)c2ccccc12	1	-10	i	-13	-5	2	6	2
O[C@@H]1C2CCCC1[C@]1(O)CCCCC1C2 (stereo partly specified)	-12	-22	i	-9	nt	2	2	4
COc1ccccc1C1CCN(C(=S)Nc2ccc(Br)cc2)CC1	-31	-2	i	15	1	-1	-8	0
CCN(CC)C(=O)c1cccc(NC(=O)C2=COCCO2)c1	-14	nt	nt	-2	nt	2	5	nt
CCOc1ccc(NC(=O)CS(=O)(=O)c2cn(CC)c3ccccc23)cc1	-17	-5	i	-2	nt	-5	1	-8
Cc1nnn(C23CC4CC(CC(CC(=O)Nc5ccc(C)c(C)c5)(C4)C2)C3)n1	-6	0	i	-20	nt	-2	-4	-4
N#C/C(=C\Nc1ccccn1)S(=O)(=O)c1ccc(Cl)cc1	nt	-8	i	-13	12	0	1	0
O=C(C1CC1)N1CCc2cc(S(=O)(=O)N3CCCc4ccccc43)ccc21	-4	-10	i	-19	nt	2	-13	2
COCCOCC(=O)Nc1ccc(S(=O)(=O)Nc2cc(C)nc(C)n2)cc1	-28	4	i	-1	-4	-7	-3	-10
O=C(C1CCN(c2nnc(-n3cccc3)s2)CC1)N1CCc2ccccc2C1	-14	-34	i	2	5	-3	0	-10
c1ccc(N2CCN(CCc3nnc4n3CCCCC4)CC2)cc1	nt	-10	i	-10	nt	6	1	-2
CCOC(=O)C1=C(C)N(C[C@@H]2CC[C@@H](Cc3ccc(-c4ccccc4)cc3)O2)C(=O)NC1c1ccc(-c2ccccc2)cc1 (stereo partly specified)	-9	nt	nt	nt	72*	-7	-9	nt
O=C(N=C1c2ccccc2CN1c1cccc(Cl)c1)c1cccnc1	-8	1	i	2	-12	-31	-28	-3
C[C@]12c3[nH]c4cc(-c5ccco5)ccc4c3CCN1C(=O)[C@@H](CC(=O)NCCN1CCOCC1)C[C@@H]2C(=O)N1CCOCC1	11	nt	nt	nt	-7	3	6	nt
O=C1C2CC=CCC2C(=O)N1c1cccc(OS(=O)(=O)c2ccc3ccccc3c2)c1 (stereo unspecified)	-18	-4	i	4	29	0	-8	7
CCOC(=O)CC(=O)NC1(Cc2ccc(O)cc2)CCCCC1	-8	7	i	4	15	1	3	1
OCCn1nc(-c2ccccc2)cc1-c1ccccc1	-17	3	i	11	3	-1	3	-6
COCCn1c(=S)[nH]c2cc(C(=O)N3CCc4ccccc43)ccc2c1=O	nt	-16	i	-1	80*	-1	-18	5
COc1ccc(-c2[nH]ncc2-c2ccc(Cl)cc2)c(O)c1	-2	9	i	26	nt	4	3	-6
CCN=C1NN=C(c2cc(C)n(Cc3ccco3)c2C)CS1	nt	6	i	-9	1	3	7	73	eIF4H FP inh retest=26;PABP FP inh retest=37
COc1cccc(OCc2cc(C(=O)N3CCCC3c3ccccn3)no2)c1 (stereo unspecified)	-15	-9	nt	0	-16	4	0	-9
N#Cc1c(N)[nH]c(=S)c(C#N)c1-c1ccccc1	-3	24	nt	12	13	6	-1	1
COc1ccccc1-c1c(C)oc2cc(OC(=O)c3ccco3)ccc2c1=O	3	41	i	-17	-243	-1	3	-14
COC(=O)c1ccccc1NC(=O)CSc1nnnn1-c1ccc(C)cc1C	-21	-10	i	38	22	-4	-14	0
CNC[C@H](CC1CCCCC1)NC[C@H](NCCC1CCCC1)[C@H](C)O	-7	0	i	29	26	5	-1	-6
O=C(NCCCN1CCOCC1)/C(=C/c1ccc(-c2cccc([N+](=O)[O-])c2)o1)NC(=O)c1ccccc1	-18	nt	nt	nt	-12	-3	-1	nt
CCOc1nc2ccccc2nc1NS(=O)(=O)c1ccccc1	-10	9	i	-1	nt	-3	1	5
O=C(NCCCc1ccccc1)c1cc(COc2c(F)cccc2F)on1	-5	-4	i	1	-19	-1	-1	-5
N#Cc1ccc(CSc2nnc(-c3cnccn3)o2)cc1	-3	0	i	-2	-36	1	0	-8
CCc1ccccc1NC(=O)c1ccc2c(O)c(S(=O)(=O)c3ccc(OC)cc3)c(=O)[nH]c2c1	-8	12	i	4	7	0	1	5
CCCCNC(=O)CC1NCCNC1=O (stereo unspecified)	nt	2	i	-17	15	-3	5	1
COC(=O)C1=C(C(=O)OC)[C@@H]2N(Cc3ccccc3)c3ccccc3[C@@]23C[C@@H](C(=O)OC)N(C(=O)c2cc(C)oc2C)C3=N1	-11	nt	i	26	-49	-8	-7	nt
C=CCN(C(=O)CCC(=O)Nc1cc(C)on1)C(C(=O)NC(C)(C)CC)c1cccc(OC)c1OC (stereo unspecified)	-2	2	i	nt	-39	0	1	7
COc1ccc(C2(C(=O)Nc3ccc(OC)cc3OC)CCCC2)cc1	2	4	i	-6	20	-3	-3	2

Random excerpt: 6 compounds from above.
SMILES	Yeast UUG start	PABP FP inh	Rce1 inh	CSC inhib	Env fusion inh	MT1-MMP act inh	MT1-MMP act inh RFP	eIF4H FP inh	others
CCN(CC)C(=O)c1cccc(NC(=O)C2=COCCO2)c1	-14	nt	nt	-2	nt	2	5	nt
CCc1ccccc1NC(=O)c1ccc2c(O)c(S(=O)(=O)c3ccc(OC)cc3)c(=O)[nH]c2c1	-8	12	i	4	7	0	1	5
CNC(=O)C1(C)Cc2c(-c3ccc(NC(C)=O)cc3)ccnc2O1 (stereo unspecified)	-9	nt	nt	nt	7	0	0	nt
CCOC(=O)CC(=O)NC1(Cc2ccc(O)cc2)CCCCC1	-8	7	i	4	15	1	3	1
COC(=O)C1=C(C(=O)OC)[C@@H]2N(Cc3ccccc3)c3ccccc3[C@@]23C[C@@H](C(=O)OC)N(C(=O)c2cc(C)oc2C)C3=N1	-11	nt	i	26	-49	-8	-7	nt
COc1ccccc1C1CCN(C(=S)Nc2ccc(Br)cc2)CC1	-31	-2	i	15	1	-1	-8	0

(next part)
SMILES	Yeast UUG start	PABP FP inh	Rce1 inh	CSC inhib	Env fusion inh	MT1-MMP act inh	MT1-MMP act inh RFP	eIF4H FP inh	others
COc1cc(OC)c(S(=O)(=O)Nc2ccccc2N2CCCCC2)cc1NC(C)=O	nt	10	i	-1	-11	0	-1	-1
Cc1ccc(S(=O)(=O)N(C)CC(=O)Nc2cccnc2)cc1	-16	2	i	-5	5	2	0	1
CCOC(=O)CCCCCNC(=O)c1ccc(F)cc1F	-7	nt	i	0	-10	1	-2	nt
Cc1cccn2c(=O)c3cc(C(=O)NC4CCCC4)c(=N)n(C4CCCCC4)c3nc12	-5	-1	i	nt	-4	5	-5	-7
Cc1cccc(C(=O)Oc2ccccc2/C=N/NC(=O)c2ccc(NC(=O)C(C)(C)C)cc2)c1	nt	12	i	26	43	8	0	-5
CCOCCCN(C)C1CCN(C(=O)c2oc3ccccc3c2NC(=O)c2ccc(F)cc2)CC1	-3	2	i	9	-3	-10	-2	-2
Cc1nc2c(=O)n(-c3ccc(F)cc3F)nc(C)c2s1	-8	-7	i	-6	1	1	-2	-8
C=C(C(=O)c1ccccc1)C(C(=C)C(=O)c1ccccc1)c1ccc(OC)cc1	nt	-2	i	59	-117	7	-22	-7
CCOC(=O)C1=C(O)C(=O)N(c2ccc(S(N)(=O)=O)cc2)C1c1ccc(Br)cc1 (stereo unspecified)	-17	-3	i	-12	-3	2	2	-7
CCN1C(=O)[C@H]2[C@@H](c3ccc(C)cc3)N3C(=O)N(c4ccc(OC)cc4)C(=O)[C@@]3(Cc3ccccc3)[C@H]2C1=O	9	nt	i	-13	-14	3	4	nt
O=C(NCc1nc2ccccc2[nH]1)C1=C[C@H](C2CC2)C[C@H](OCc2ccc(CO)cc2)O1	-2&-26	21	i	-18	2[16.7 µM]	1	-2	35
COc1ccc2[nH]c(C)c(C(=O)CN3CCc4cc(OC)c(OC)cc4C3)c2c1	-32	0	i	5	nt	3	11	6
CN1CCN(C(=S)NC(=O)c2ccccc2Br)CC1	-17	-6	i	-15	2	1	5	-3
CCOC(=O)c1c(C)n(-c2ccc(OC)cc2)c2c(C/C(C)=N/O)c(Br)c(OC)c(O)c12	-10	2	i	-4	nt	-1	-2	3

Bioassay records as filed in PubChem.
